Biofilm kill mix = mixture kills Candida albicans biofilm cells; 120,000 tested, 0.02% active; C. albicans biofilm persisters + clotrimazole, fluorescence viability; primary screen in compound mixtures of four per well; AID 1242; inhibition, % at 7.6 µM;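 active = inhibition above 30.3% in the primary screen of four-compound pools, then above 30% when the compound was retested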;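 note: compounds exposed to preformed 24 h biofilms for 48 h; the number belongs to the whole pool; some results filed as inactive read as strong as hits; inactives centre near 12; 0% = biofilm with clotrimazole alone and 100% = kill control; retested singly at about 60 µM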
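Assay system: C. albicans biofilms / Medium: RPMI/MOPS medium, pH 7.0 / Schedule: biofilm formation 24 h, compound exposure 48 h, 37 °C / Measured by: Alamar Blue fluorescence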
* = called active by the depositor. These rows are one share of the data; the hit share may differ from the screen's.

Molecule | Biofilm kill mix
Cc1cc(C(=O)N/N=C2\CC(=O)CC(C)(C)C2)c(C)n1-c1ccccc1 | 15
O=[N+]([O-])c1cc(S(=O)(=O)NC2=NCCCCC2)ccc1Cl | 10
COc1ccc(/C=C/C(=O)NC(=S)N2CCN(c3ccccn3)CC2)cc1 | 26
Cc1onc(-c2c(F)cccc2Cl)c1C(=O)NCCO | -4
CN(C)c1ccc(O)c2c1CC1CC3[C@@H](N(C)C)C(=O)C(C(N)=O)=C(O)[C@]3(O)C(=O)C1=C2O (stereo not given in full) | 8
CCN1CCN(C(c2ccccc2)c2nnnn2Cc2ccc3c(c2)OCO3)CC1 (stereo not given) | 7
CSc1ccccc1NC(=O)Cn1ccsc1=N | 5
O=C(c1cn(-c2ccccc2)nc1-c1cccc(Br)c1)N1CCOCC1 | 16
CC(=O)C1C(c2ccc(Br)cc2)c2c(noc2C)CC1(C)O (stereo not given) | 16
O=C(/C=C/c1ccccc1)NC1CCSC1=O (stereo not given) | 15
CC1(CCc2ccccc2)NC(=O)N(CC(=O)Nc2ccc(S(N)(=O)=O)cc2)C1=O (stereo not given) | 19
Fc1ccc(Oc2nnnn2-c2ccccc2)cc1 | 12
CCC(CC)C(=O)Nc1ccc(C(=O)Nc2cc(C)on2)cc1 | 15
Cc1ccc2c(c1)cc(CN(Cc1cccnc1)C(=O)c1ccccc1)c1nnnn12 | 12
Nc1ccccc1Nc1cc(-c2ccccc2)nn1-c1cccc(Cl)c1 | 8
CC(C)(C)C(=O)Cn1c(=O)n(-c2ccc(F)cc2F)c(=O)c2sccc21 | 1
COCCN(C(=S)Nc1cccc(C)c1C)C(C)c1ccco1 (stereo not given) | 5
CC(C)[C@H](NC(=O)c1ccccc1)C(=O)OCc1nc2scc(-c3ccccc3)c2c(=O)[nH]1 | 19
CCOC(=O)c1cnc2ccc(C(=O)OC)cc2c1Nc1cccc(C(=O)O)c1 | 11
O=C(c1ccc(S(=O)(=O)Nc2ccc(F)cc2)cc1)N1CCN(c2ccccn2)CC1 | 11
Cc1cs/c(=N/C(=S)Nc2ccccc2)n1C | 20
CC(C)(C)NC(=O)CCCCCCCC(=O)NC(C)(C)C | 9
C/C(CC(C)C)=N\Nc1ccc(S(N)(=O)=O)cc1[N+](=O)[O-] | 20
COc1cccc(/C=N/NC(N)=S)c1OS(=O)(=O)c1ccccc1 | 6
CS(=O)(=O)Oc1ccc2c(c1)O/C(=C\c1cccnc1)C2=O | 21
CCN(c1ccccc1)S(=O)(=O)c1cc(C(=O)Oc2ccc3c(C)cc(=O)oc3c2)ccc1C | 16
Brc1ccc(-c2csc(N/N=C/c3ccc4c(c3)OCO4)n2)cc1 | 18
COc1ccccc1OCCCCCCN1CCOCC1 | -1
CC(C)N(C(=O)Cn1cc(SCC(=O)NCC2CCCO2)c2ccccc21)C(C)C (stereo not given) | 15
C(=N\N1CCN(c2ccccn2)CC1)/c1cccc2ccccc12 | 18
Cc1cc(C)nc(Nc2nc3ccccc3o2)n1 | 21
O=C(O)C1CC=CCC1C(=O)Nc1cccc([N+](=O)[O-])c1 (stereo not given) | 2
CCOC(=O)c1cc2c(nc1NC(=S)NCc1ccccc1)CCCC2 | 16
COc1ccc2[nH]c3c(c2c1)CCn1c-3nc2sc(C(=O)Nc3ccccc3)c(C)c2c1=O | 9
C/C(=C\CCC1(C)C2CC3C(C2)C31C)C(=O)O (stereo not given) | 26
COc1ccc(OC)c(CN2CCC(C(=O)N3CCOCC3)CC2)c1 | 4

Of the compounds above, 3 have a COOH group.
Molecule | Biofilm kill mix
CCOC(=O)c1cnc2ccc(C(=O)OC)cc2c1Nc1cccc(C(=O)O)c1 | 11
O=C(O)C1CC=CCC1C(=O)Nc1cccc([N+](=O)[O-])c1 (stereo not given) | 2
C/C(=C\CCC1(C)C2CC3C(C2)C31C)C(=O)O (stereo not given) | 26

(continued)
Molecule | Biofilm kill mix
Cc1ccc(C(=O)NC(=S)NNC(=O)CC#N)cc1 | 21
COc1cccc(/C=C2\SC(=S)N(N3CCOCC3)C2=O)c1OC | 5
CN(C)C(CNc1ccc([N+](=O)[O-])cc1C#N)c1ccccc1 (stereo not given) | 3
CC1=CC=CC2=NC(=O)CC(C)(C(=O)O)N12 (stereo not given) | 17
O=C(/C=C/c1ccccc1Cl)c1ccc[nH]1 | 5
CCc1cccc(CC)c1NC(=S)NCc1ccc2[nH]c(C)cc2c1 | 12
Cc1ccc(CNCC(=O)Nc2ccc(N3CCOCC3)cc2)cc1 | 3
O=C(Nc1ncn[nH]1)c1ccc(Cl)cc1Cl | -5
COc1ccc(C(=O)NCCSc2ccccc2)cc1 | 28
Cc1ccc(NC(=O)CCc2nc3ccccc3s2)c(O)c1 | 9
CCCCC(=O)N/N=C(\C)c1cccc(NC(=O)C2CC2)c1 | 11
N/C(=N\OC(=O)Cc1ccccc1[N+](=O)[O-])c1cccnc1 | 12
CC1CN(C(=O)N2CCCCC2)CCN1C(=O)N1CCCCC1 (stereo not given) | 7
CC(C)(C)N/N=C/c1cc(Cl)cc([N+](=O)[O-])c1O | 14
Cc1cccc(NNC(=O)C2CCC2)c1 | 19
Cc1cc(N2CCN(C)CC2)nc2ccc(NC(=S)N3CCN(c4ccc(Cl)cc4)CC3)cc12 | 15
CC(C)OCCCNC(=O)NC(=O)c1ccc(Cl)cc1 | 7
CCOC(=O)Cn1nc(C)n(-c2ccc(Br)cc2)c1=O | 9
COc1ccccc1N1CCN(C(=O)/C=C/c2ccccc2)CC1 | 17
COc1ccc(OCCCC(=O)Nc2nccs2)cc1 | 16
CC(=O)Nc1ccc(NC(=O)C(C)OC(=O)C2(c3ccc(F)cc3)CCCC2)cc1 (stereo not given) | 6
C=CCOc1ccc(Br)cc1CNCCCN1CCOCC1 | 9
Cc1c(-c2nnc(SCC(=O)O)n2-c2ccccc2Br)nnn1-c1ccccc1 | 18
COc1ccc2c(c1)C=CC1(O2)N(CCO)c2ccccc2C1(C)C (stereo not given) | 16

Some of the entries above, reformatted:
mol: O=C(/C=C/c1ccccc1)NC1CCSC1=O (stereo not given)
  Biofilm kill mix: 15
mol: Cc1onc(-c2c(F)cccc2Cl)c1C(=O)NCCO
  Biofilm kill mix: -4
mol: CC(C)OCCCNC(=O)NC(=O)c1ccc(Cl)cc1
  Biofilm kill mix: 7
mol: Cc1c(-c2nnc(SCC(=O)O)n2-c2ccccc2Br)nnn1-c1ccccc1
  Biofilm kill mix: 18

Among those listed so far, five contain fluorine:
Molecule | Biofilm kill mix
Cc1onc(-c2c(F)cccc2Cl)c1C(=O)NCCO | -4
Fc1ccc(Oc2nnnn2-c2ccccc2)cc1 | 12
CC(C)(C)C(=O)Cn1c(=O)n(-c2ccc(F)cc2F)c(=O)c2sccc21 | 1
O=C(c1ccc(S(=O)(=O)Nc2ccc(F)cc2)cc1)N1CCN(c2ccccn2)CC1 | 11
CC(=O)Nc1ccc(NC(=O)C(C)OC(=O)C2(c3ccc(F)cc3)CCCC2)cc1 (stereo not given) | 6

Continued:
Molecule | Biofilm kill mix
CC(=O)NCCC(=O)Nc1nc(-c2cccs2)c(-c2cccs2)s1 | 8
CCOC(=O)c1c(C)[nH]c(C(=O)N2CCCC(C(=O)c3cccc(OC)c3)C2)c1C (stereo not given) | 8
Cc1ccc(C)c2[nH]c(=O)c(CN(CC3CCCO3)C(=S)NCc3ccco3)cc12 (stereo not given) | 23
c1ccc(Cn2c[n+](Cc3ccccc3)cn2)cc1 | 22
O=C(CSc1nnc(CNC(=O)C23CC4CC(CC(C4)C2)C3)n1-c1ccccc1)Nc1ccccc1 | 15
Cc1ccc(C(=O)NCCNC(=O)c2ccccc2)cc1 | -16
COc1ccccc1Nc1nc(N)nc(CN2CCC(C)CC2)n1 | 16
COc1cc([N+](=O)[O-])cc2sc(NC(=O)C3CC3)nc12 | 6
CC1=C(C(=O)OCc2ccccc2)C(c2ccccc2-c2ccccc2)NC(=O)N1CCCCCC(=O)O (stereo not given) | 22
CCOc1ccc(NC(=O)COC(=O)C2(C)CC2(Cl)Cl)c([N+](=O)[O-])c1 (stereo not given) | 18
C/C(=N\NC(=S)NCc1ccccc1)c1ccc2ccccc2c1 | -7
CCOc1cc(NC(=S)NCCCOC)c(OCC)cc1NC(=O)c1ccco1 | 19
Cc1ccc(C2C3=C(CC(C)(C)CC3=O)OC3=C2C(=O)CC(C)(C)C3)cc1 | 10
CCOC(=O)C1CCCN(CC(O)COc2cccc(C)c2)C1 (stereo not given) | 8
CCOc1ccc(C(=O)NCCO)cc1 | -4
Cc1cccc(Nc2nc(NCc3ccco3)nc(N)c2[N+](=O)[O-])c1 | 13
COCCN(C(=O)CCc1nnc(CCc2c[nH]c3ccccc23)o1)C(C)C | 11
C#Cc1ccc([C@@H]2C=C(C(=O)Nc3ccccc3)O[C@H](OCC)[C@H]2CCCO)cc1 | 11
Cc1ccccc1-c1nn(-c2ccc(F)cc2F)cc1CNC1CC1 | 11
Cc1cccc(Sc2ccc([N+](=O)[O-])cc2[N+](=O)[O-])n1 | 15
COc1ccc(NC(=O)N2CCC(c3nc4ccccc4[nH]3)CC2)cc1 | 15
CC1(CCl)N([O-])C2=C(CCCC2)[N+]1=O (stereo not given) | 22
CCCCCC1CC(CC(=O)NC(=S)Nc2ccccc2Cl)C(=O)O1 (stereo not given) | 23
CCOCCCNCc1cc(Cl)ccc1OCC | 25
Clc1ccccc1CN1CCN(/N=C/c2ccncc2)CC1 | 24
Cc1noc(C)c1COC(=O)c1cccc(N(C)C)c1 | 16
CN1CCCN(C(=O)CC2(CC(=O)O)CCCCC2)CC1 | 15
COc1cc(/C=N\Nc2nc(-c3ccc(C)cc3)c(NC(C)=O)s2)ccc1O | 20
COc1ccccc1-n1cc(C(=O)NCC(=O)N2CCN(c3ccccn3)CC2)c2ccccc2c1=O | 13
COc1cccc(C(C)N(C)Cc2nc(-c3ccoc3)oc2C)c1 (stereo not given) | 12
Cc1nn(Cc2cccc(C(N)=O)c2)c(C)c1Br | 19
COc1ccc(C(CCN2CCCC(C)C2)c2c(OC)cc(OC)c3c(C)cc(=O)oc23)cc1 (stereo not given) | 18
CCN(CC)S(=O)(=O)c1ccc2c(c1)nc(CCC(=O)OCC(=O)Nc1cc(Cl)cc(Cl)c1)n2C | 17
N#Cc1ccc(Oc2ccc(C(F)(F)F)cc2NC(=O)c2ccc(F)cc2)cc1 | 15
O=C(NCc1cccnc1)Nc1ccc2c(c1)OCO2 | -2
CC(C(=O)Nc1cccc([N+](=O)[O-])c1)[n+]1ccccc1 (stereo not given) | 7

Structural class: the compounds so far with a tert-butyl group.
Molecule | Biofilm kill mix
CC(C)(C)C(=O)Cn1c(=O)n(-c2ccc(F)cc2F)c(=O)c2sccc21 | 1
CC(C)(C)NC(=O)CCCCCCCC(=O)NC(C)(C)C | 9
CC(C)(C)N/N=C/c1cc(Cl)cc([N+](=O)[O-])c1O | 14

Other structures.
Molecule | Biofilm kill mix
CN(C)c1ccc(C2(O)C(=O)c3ccccc3C2=O)cc1 | -3
O=C(/C=C/c1ccc(Cl)cc1Cl)c1ccc[nH]1 | 18
Nc1nnc(SC2CCCC2)s1 | 6
COc1cc(C(=S)N2CCCC2)cc(OC)c1OC | 16
C(=C\c1ccccc1)/CSc1nc2ncccc2[nH]1 | 22
COc1ccccc1OCC(=O)Nc1ccc(S(=O)(=O)N2CCN(C)CC2)cc1 | 23
Cc1ccc2nc(C)c(C(=O)N/N=C/c3cccs3)n2c1 | -1
Cc1cc(CNC(=O)[C@H](C)[C@@H]2C[C@@]2(C)[C@@H](NC(=O)OCc2ccccc2)c2ccccc2)nn1C | 9
COc1ccc(NS(=O)(=O)c2ccc(NC(=O)c3ccccc3)cc2)nn1 | 14
N=C(N)SCc1ncccc1O | 20
Cc1ccc(S(=O)(=O)Nc2ccc(C(=O)Nc3ccncc3)cc2)cc1 | 16
COc1ccc(C(=O)N2CCN(c3ccc([N+](=O)[O-])c(-n4nc(C)cc4C)c3)CC2)cc1 | 17
CC(Nc1ccccc1N1CCCCC1)C(=O)N1CCc2ccccc21 (stereo not given) | 18
CC(C)C(Nc1ccc(S(=O)(=O)N2CCOCC2)cc1[N+](=O)[O-])C(=O)O (stereo not given) | 18
Cc1ccc(-c2cc(C(=O)Nc3ccc(S(=O)(=O)Nc4ncccn4)cc3)c3ccccc3n2)cc1 | -14
Cc1cccc(NC2=C(Cl)C(=O)OC2OC(C)C)c1 (stereo not given) | 12
CC1=NN(c2ccccc2)C(=O)C1C(=O)c1ccccc1 (stereo not given) | 17
COc1ccccc1NC(=O)C(=O)/C=C(\O)c1ccccc1 | 27
CN(C(=O)CSc1ncnc2sccc12)c1c(N)n(Cc2ccccc2)c(=O)[nH]c1=O | 11
C/C(=N\NC(=O)CCCOc1ccc(Cl)cc1C)c1ccc(C)o1 | 1
COc1ccccc1/C=C/C=N/n1c(-c2n[nH]c3c2CCC3)n[nH]c1=S | 20
CCOC(=O)c1ccc(N2C(=O)CC(Nc3ccc(O)cc3)C2=O)cc1 (stereo not given) | 21
COc1cc(CCCN2C(N)=NC[C@@H]2c2ccccc2)cc(OC)c1OC | 17
CCOc1ccc2c(c1)c(N=O)c(O)n2C | 7
COc1cccc(CC(Cc2nc3ccccc3[nH]2)c2nc3ccccc3[nH]2)c1 (stereo not given) | 16
O=C(NCC1CCCO1)C1CC1(c1ccccc1)c1ccccc1 (stereo not given) | 17
Cc1ccc2nc(Cl)c(C3CC(c4ccco4)=NN3C(=O)CCCC(=O)O)cc2c1 (stereo not given) | 26
CCOc1ccc(/C=N/NC(=O)C(C)Sc2ccccn2)cc1OCC (stereo not given) | 13
CC(=O)Nc1ccc(NC(=O)CCSCCc2ccccn2)cc1 | 15
CC(C)(C)SCCNC(=O)CN(c1ccccc1)S(=O)(=O)c1ccc(F)cc1 | 12
